# Env fusion inh: blocks HIV Env-driven cell-cell fusion; HeLa-JRFL Env/CEM21 cell fusion, luciferase; inhibition, % at 12.3 µM; actives 1.1% (n = 360,000); AID 651610;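 active = mean replicate inhibition score of at least 50 and every replicate individually at or above 50; inconclusive = only one of the two criteria met; inactive = mean below 50 and not all replicates reaching 50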;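 note: 0% = plate neutral controls and 100% = maraviroc near 300 nM; one replicate is shown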
# MT1-MMP act inh: inhibitors of human MT1-MMP activation | AID 651647 | actives 0.061% (n = 360,000) | HT1080 RFP-PRO-GFP cells, GFP/RFP ratio fluorescence, overnight; percent of plate control window, DMSO zero | P50281 | GFP/RFP ratio change, % at 20 µM;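 active = GFP/RFP ratio change of at least 30% with cell ATP level not reduced by more than half and red fluorescence within 50% of control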; note: strong numbers were not always called active
#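 Assay system – RFP-PRO-GFP reporter HT1080 cells · Compound dosing – single dose of 20 µM compound, 1% DMSO final · Incubation – overnight compound exposure at 37 °C · Measure – GFP/RFP fluorescence ratio · Benchmarks – DMSO wells and RFP-L50D-GFP cells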
# Yeast UUG start: alters start codon recognition fidelity in yeast | S. cerevisiae UUG-firefly luciferase reporter, luminescence/redox ratio | activity score, % at 18.7 µM | actives 0.13% (n = 350,000);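 active = replicate mean at a twofold rise or more, about +100% in these data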;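 note: firefly luciferase made from a UUG start codon reports start codon fidelity; reporter light over untreated wells divided by growth signal over untreated wells; some hits fall short of that in this replicate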
# PABP polyA inh: PABP-poly(A) binding inhibition | P11940 | PABP-poly(A) RNA binding, fluorescence polarization | inhibition, % at 35 µM | actives 1% (n = 290,000) | AID 2014;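 active = 50% or more with normal probe brightness, or confirmed in later tests; inconclusive = above 50% with abnormal brightness, or retests that disagree; inactive = below 50% or failed in later tests; about a fifth of its hits are not listed in these tables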;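 note: calls also rest on retests at 20 µM and on dose response follow-up; controls were probe without protein and protein plus probe with vehicle; some compounds called inactive have numbers as strong as hits; many hits fall short of the cut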
# Target sequence (P11940 whole entry, looked up): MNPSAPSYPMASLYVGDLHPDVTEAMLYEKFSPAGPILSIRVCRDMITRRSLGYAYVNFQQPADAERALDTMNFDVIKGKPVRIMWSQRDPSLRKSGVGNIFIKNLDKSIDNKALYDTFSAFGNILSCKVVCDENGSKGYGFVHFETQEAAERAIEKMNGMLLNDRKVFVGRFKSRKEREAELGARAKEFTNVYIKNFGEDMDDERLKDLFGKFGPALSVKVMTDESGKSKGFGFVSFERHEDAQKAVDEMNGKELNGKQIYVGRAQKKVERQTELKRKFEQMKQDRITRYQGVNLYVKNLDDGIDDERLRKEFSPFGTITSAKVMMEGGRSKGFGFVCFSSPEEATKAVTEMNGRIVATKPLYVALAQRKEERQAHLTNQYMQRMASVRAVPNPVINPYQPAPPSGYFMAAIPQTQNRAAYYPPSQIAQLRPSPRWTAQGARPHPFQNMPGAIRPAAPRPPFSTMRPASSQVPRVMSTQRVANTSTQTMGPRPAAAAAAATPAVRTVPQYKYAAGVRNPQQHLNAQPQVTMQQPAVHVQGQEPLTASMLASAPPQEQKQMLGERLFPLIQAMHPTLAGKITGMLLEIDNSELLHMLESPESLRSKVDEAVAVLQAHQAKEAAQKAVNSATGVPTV
# eIF4H FP inh: inhibitors of RNA binding by human eIF4H; Q15056; actives 0.94% (n = 290,000); inhibition, % at 35 µM; eIF4H fluorescence polarization binding assay;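 active = 50% or more with normal probe brightness, or confirmed in later tests; inconclusive = above 50% with abnormal brightness, or retests that disagree; inactive = below 50% or failed in later tests; about a fifth of its hits are not listed in these tables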;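 note: calls also rest on retests at 20 µM and on dose response follow-up; 0% = protein and probe with vehicle and 100% = probe without protein; strong numbers were not always called active; many hits fall short of the cut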
# CSC inhib: blocks cancer stem cells; cancer stem cell-like cells viability, luminescence; inhibition, % at 7.5 µM; actives 1.1% (n = 300,000); AID 2717;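 active = mean at 75% or more and at least half the replicates too; inconclusive = mean and replicates disagree; tested in HMLE shEcad cells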;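 note: 0% = median of negative and 100% = median of positive control wells; the first replicate is given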
# Rce1 inh: yeast Ras-converting enzyme inhibition. calls only. Q03530. yeast membranes, quenched prenylated peptide cleavage fluorescence. AID 2563. actives 0.27% (n = 290,000);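 active = fall in fluorescence gain of 50% or more versus controls, with final raw signal at or below 3038400; inconclusive = same 50% fall but final raw signal above 3038400; inactive = fall in fluorescence gain under 50%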;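 note: plate controls were neutral control wells for no effect and wells lacking membranes for full effect; tested at 10 µM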
# Target sequence (Q03530 whole entry, looked up): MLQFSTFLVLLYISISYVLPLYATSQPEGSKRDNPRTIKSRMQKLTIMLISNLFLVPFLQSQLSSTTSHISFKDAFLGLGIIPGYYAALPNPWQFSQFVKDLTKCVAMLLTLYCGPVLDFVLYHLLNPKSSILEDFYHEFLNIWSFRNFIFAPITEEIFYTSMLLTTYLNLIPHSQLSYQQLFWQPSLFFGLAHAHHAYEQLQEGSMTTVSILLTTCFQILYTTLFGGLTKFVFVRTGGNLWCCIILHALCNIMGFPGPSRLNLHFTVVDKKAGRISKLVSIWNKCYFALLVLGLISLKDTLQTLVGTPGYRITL
# eIF4H FP inh retest: further read-out of eIF4H FP inh, marked with its call; inhibition, %; compound at 20 µM; confirmation average;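 mean of two retest wells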
# PABP polyA inh retest: further read-out of PABP polyA inh, marked with its call; inhibition, %; compound at 20 µM; confirmation repeats;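 mean of two retest wells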
# MT1-MMP act inh RFP: further read-out of MT1-MMP act inh, marked with its call; RFP signal change, %; measured here: RFP expression control read;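 0 = vehicle wells; hits needed this value within 50% of zero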
# Active calls of the source: *; i = inactive; ? = inconclusive; . = no result given; + = active, no number.
SMILES,Env fusion inh,MT1-MMP act inh,MT1-MMP act inh RFP,Yeast UUG start,PABP polyA inh,eIF4H FP inh,CSC inhib,Rce1 inh,others
CC(=NCCc1c[nH]c2ccccc12)c1c(O)n(Cc2ccccc2)c(=O)[nH]c1=O,14,0,-9,-9,-1,-2,8,i,
COC(=O)C1=C(c2ccc(F)cc2OCc2ccccc2)C[C@@H]2CC[C@H]1N2C(=O)NCc1ccc(OC)cc1,-31,-6,-8,-20,.,.,31,.,
COc1ccc(N2C(=O)/C(=C/c3cccs3)C(=O)NC2=S)cc1,16,18,18,-11,-4,-12,44,i,
CC1CC(OP(O)(=S)c2ccc(N(C)C)cc2NC(=O)c2cccs2)CC(C)(C)C1 (stereo not given),8,-5,0,.,-4,9,-16,i,
COc1ccccc1NC(=O)c1cn(CCC#N)nc1-c1cccc(Cl)c1,-1,5,-6,-9,-3,-11,-9,i,
CC(Cc1cccs1)NCc1ccc(Cl)cc1 (stereo not given),7,0,3,.,-3,1,-6,i,
C#CC1(O)C=CC2C3CCC4=CC(=O)CCC4C3CCC21CC (stereo not given),-33,-2,-1,-6,1,0,1,i,
O=C(NC1CONC1=O)OCC(Cl)(Cl)Cl (stereo not given),8,0,1,.,-4,11,77*,i,
CNC(=S)N1CCn2cccc2C1c1cccnc1 (stereo not given),-3,0,2,15,-1,11,11,i,
CCN(CC)C(=O)c1ccc(NC(=O)Cn2nc(C)c3ccccc3c2=O)cc1,18,8,-1,5,-6,-14,-7,i,
COc1ccc(CNCCc2ccc(Cl)cc2)c(OC)c1OC,30,0,1,14,3,16,3,i,
O=C(CCC(=O)N1CCOc2ccc(Cl)cc21)N1CCC2(CC1)OCCO2,8,3,1,0,3,2,-6,i,
CCN(CC)c1ccc(/C=C2\C(=O)NC(=O)N(Cc3ccco3)C2=O)cc1,-45,-35,10,.,-7,?,-14,i,
CC12CN3CC(C)(CN(C1)C3c1ccncc1)C2=O (stereo not given),.,4,1,1,3,12,.,i,
COc1ccc2[nH]cc(CCN)c2c1,.,2,6,-2,6,-3,1,.,
CS(=O)(=O)c1ccc(C2=C(CNC(=O)c3cccs3)[C@H]3CC[C@@H](C2)N3CCOc2ccccc2)cc1,12,-1,0,-7,.,.,.,.,
COc1ccc(C2N(c3cc(C)on3)C(=O)C3CCCN32)cc1 (stereo not given),0,-5,0,.,3,5,0,i,
CCCCCCOc1ccc(CN2CCN(CCO)CC2)cc1,-109,1,-1,-23,-1,-5,83*,i,
c1ccc(-c2[nH]c(-c3ccccc3)[n+](CC3CO3)c2-c2ccccc2)cc1 (stereo not given),4,-3,-6,.,4,-4,26,i,
CCC(C)OC(=O)c1c(N)n(Cc2cccs2)c2nc3ccccc3nc12 (stereo not given),61*,-55,-33,-12,-18,-6,8,i,
C=CCn1c(O)c(C(CC)=Nc2ccc3c(c2)CCC3)c(=O)[nH]c1=O,8,2,-2,.,-3,2,5,i,
N#CC(C#N)=Cc1cccnc1,3,-1,6,.,1,7,.,i,
CCCCCCC(=O)c1c(O)n(-c2ccccc2OC)c(=O)[nH]c1=O,1,-2,3,.,-1,?,-32,i,
CN1OC[C@@H]2CN[C@H](c3ccccc3Br)C[C@@H]21,-3,1,1,-7,.,.,.,.,
CC(Cc1ccsc1)NCc1cn[nH]c1-c1ccc(F)cc1F (stereo not given),63*,-1,0,-13,-15,0,-5,i,

# Quoted from above (4 entries):
SMILES,Env fusion inh,MT1-MMP act inh,MT1-MMP act inh RFP,Yeast UUG start,PABP polyA inh,eIF4H FP inh,CSC inhib,Rce1 inh,others
N#CC(C#N)=Cc1cccnc1,3,-1,6,.,1,7,.,i,
CCCCCCC(=O)c1c(O)n(-c2ccccc2OC)c(=O)[nH]c1=O,1,-2,3,.,-1,?,-32,i,
CN1OC[C@@H]2CN[C@H](c3ccccc3Br)C[C@@H]21,-3,1,1,-7,.,.,.,.,
CC(Cc1ccsc1)NCc1cn[nH]c1-c1ccc(F)cc1F (stereo not given),63*,-1,0,-13,-15,0,-5,i,

# The list continues:
SMILES,Env fusion inh,MT1-MMP act inh,MT1-MMP act inh RFP,Yeast UUG start,PABP polyA inh,eIF4H FP inh,CSC inhib,Rce1 inh,others
CC(C)(C)C(=O)N1Cc2cc(N3CCCCC3)ccc2-n2nncc2C1,0,-1,-2,-6,.,.,.,.,
N#CC1(c2ccccc2)CCN(C2CC(=O)N(c3ccc(F)cc3)C2=O)CC1 (stereo not given),-2,2,0,.,1,-11,-11,i,
COc1cc(OC)c(OC)cc1/C=C1/C(=O)NC(=O)N(Cc2ccccc2)C1=O,13,-4,-4,-17,?,?,-8,i,
CN(C)C(=O)Oc1ccc2c(c1)O/C(=C\c1ccccc1)C2=O,-28,0,-1,-11,-7,-7,-11,i,
COCCCn1c(N)c(C(=O)NCc2ccco2)c2nc3ccccc3nc21,3,.,.,.,19,10,17,+,
COC(=O)C1=C(c2ccc(F)cc2OCc2ccccc2)C[C@@H]2CC[C@H]1N2C(=O)NCc1ccccc1,12,-6,-7,-13,.,.,24,.,
CCOC(=O)c1ccc(NC(=O)N2CC3CC(C2)c2cccc(=O)n2C3)cc1 (stereo not given),.,1,9,-6,4,-5,6,i,
CCOC(=O)c1ccc(N=Cc2c(O)n(-c3ccccc3F)c(=S)[nH]c2=O)cc1,-13,-6,50,-20,-4,-4,.,i,
CCCCn1c(O)c(C(CC)=Nc2ccc(C(=O)O)cc2)c(=O)[nH]c1=O,-69,-8,3,5,-2,62*,.,i,eIF4H FP inh retest=53*;PABP polyA inh retest=34
CCNC(=S)NCCC1=c2ccccc2=N/C1=C\c1c(O)n(C)c(=O)n(C)c1=O,19,-2,5,-18,2,0,1,i,
COC(=O)C1=C(c2ccc(OCc3ccccc3)cc2)C[C@@H]2CC[C@H]1N2C(=O)NCCCc1ccccc1,-57,-10,-20,-12,.,.,15,.,
CCCCC1(CCO)C(=O)NC(=S)NC1=O,23,-3,4,-14,.,.,.,.,
CC1CCCCC1NC1CCN(C)CC1 (stereo not given),-15,4,5,-4,5,5,-14,i,
N#CC1c2ccccc2-n2nncc2CN1S(=O)(=O)c1cc(Cl)cc(Cl)c1 (stereo not given),-54,1,3,-12,.,.,.,.,
CN1CCN(C(=O)COc2ccc(S(=O)(=O)N(C)Cc3ccccc3)cc2)CC1,.,0,0,-24,-8,-3,4,i,
CC(=O)c1ccc(OC(NC(=O)Cc2ccccc2)C(Cl)(Cl)Cl)cc1 (stereo not given),.,-3,-2,4,-6,1,-17,i,
CCCCCCC(=O)c1c(O)n(-c2ccccc2OC)c(=O)[nH]c1=O (tested in a mixture with another compound),-6,1,2,-2,4,-1,-6,i,
Cc1ccc2c(c1)CC1(CN2C)C(=O)NC(=O)N(CCc2ccccc2)C1=O (stereo not given),-25,-2,0,5,13,-4,.,i,
CC(=O)N1CN2CN(C(C)=O)CC(C(=O)c3ccccc3)(C2)C1,.,-1,8,-4,-10,-4,-2,i,
O=C1NC(=O)N(CCc2ccc(F)cc2)C(=O)/C1=C/c1cccs1,-106,-4,5,-5,6,1,15,i,
COCCOC(=O)c1c(C)oc2ccc(OC(=O)N(C)C)cc12,-1,1,1,-42,-9,-4,-3,i,
COC(=O)C1=C(c2cccc(C#N)c2)C[C@@H]2CC[C@H]1N2C(=O)NCc1ccco1,-23,-1,-3,-18,.,.,-5,.,
COC(=O)C1=C(C(=O)OC)C2c3ccccc3C1c1ccccc12,?,0,0,-21,.,.,.,.,
O=P(NCc1ccccc1)(Oc1ccccc1)Oc1ccccc1,-13,3,1,.,-6,1,6,.,
Cc1ccsc1C(=O)C1CCCN(Cc2cnc(N3CCCC3)s2)C1 (stereo not given),6,5,3,.,-3,6,10,i,

# Going on with the list.
SMILES,Env fusion inh,MT1-MMP act inh,MT1-MMP act inh RFP,Yeast UUG start,PABP polyA inh,eIF4H FP inh,CSC inhib,Rce1 inh,others
FC(F)(F)c1ccccc1CNCCc1c[nH]c2ccccc12,12,2,0,-2,-11,-2,11,i,
Cc1sc2c(c1C)C(c1cccs1)=NCC(=O)N2CC(=O)NCc1cccs1,-61,-3,0,-8,-6,2,-29,i,
O=[N+]([O-])c1cnc[nH]1,2,1,2,-18,.,.,3,i,
CO[C@H]1[C@@H](OC)CC(OC2OC(CO)C(O)C(O)C2O)/C(=C\C#N)[C@@H]1O (stereo not given in full),-20,-1,0,-23,8,2,-16,i,
O=C(Oc1ccc([N+](=O)[O-])cc1)N1CCC(N2CCCCC2)CC1,10,0,-2,-15,0,-6,7,i,
O=c1[nH]c(=O)n(-c2ccccc2Cl)c(O)c1C=NCCN1CCCCC1,-63,4,2,-10,4,-3,-9,i,
CNC(=O)O/N=C(\C)Cc1nnn(-c2cc(C)on2)n1,-2,-1,-3,-6,29,13,-2,.,
COc1cccc(CN2CC=C(c3ccc(F)cc3)CC2)c1,-3,1,1,-27,7,1,13,i,
O=C(c1cc2cc3ccc(Cl)cc3nc2o1)N1CCC2(CC1)OCCO2,-17,2,-1,-19,-11,-11,-3,i,
C1=CC(Cc2cncs2)c2ccccc21 (stereo not given),-42,-2,9,0,.,.,-13,.,
CC(=O)CC(=O)C1C(=O)N(C)C(=O)N(C)C1=O,6,-1,7,.,-5,8,-8,i,
NC(N)=Nc1ccc2[nH]c3c(c2c1)C[C@@]1(O)[C@H]2Cc4ccc(O)c5c4[C@@]1(CCN2CC1CC1)[C@H]3O5,.,-3,5,-29,.,.,-3,.,
O=C(CCCc1ccccc1)NCCc1cnc[nH]1,-8,8,11,-16,3,7,-5,i,
CC(=NCCC1=CCCCC1)c1c(O)n(-c2ccccc2)c(=O)[nH]c1=O,-13,5,-1,11,-4,-5,-3,i,
CCOP(=O)(OCC)C(O)c1ccc(OC)c(OC)c1 (stereo not given),.,1,1,-6,1,-2,-5,i,
c1ccc(CC(NCc2ccco2)c2ccccc2)cc1 (stereo not given),3,3,3,.,-2,-1,.,i,

# Some of these compounds in order of molar mass, ascending:
SMILES,Env fusion inh,MT1-MMP act inh,MT1-MMP act inh RFP,Yeast UUG start,PABP polyA inh,eIF4H FP inh,CSC inhib,Rce1 inh,others
O=C(CCCc1ccccc1)NCCc1cnc[nH]1,-8,8,11,-16,3,7,-5,i,
CNC(=O)O/N=C(\C)Cc1nnn(-c2cc(C)on2)n1,-2,-1,-3,-6,29,13,-2,.,
COc1cccc(CN2CC=C(c3ccc(F)cc3)CC2)c1,-3,1,1,-27,7,1,13,i,
O=C(c1cc2cc3ccc(Cl)cc3nc2o1)N1CCC2(CC1)OCCO2,-17,2,-1,-19,-11,-11,-3,i,

# A portion of the library; count on the stated rates, not on these rows.
